Env fusion inh – HIV envelope-mediated fusion inhibition | inhibition, % at 12.3 µM | 1.1% of 360,000 active | AID 651610 | HeLa-JRFL Env/CEM21 cell fusion, luciferase;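 active = mean replicate inhibition score of at least 50 and every replicate individually at or above 50; inconclusive = only one of the two criteria met; inactive = mean below 50 and not all replicates reaching 50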;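 note: 0% = plate neutral controls and 100% = maraviroc near 300 nM; one replicate is shown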
MT1-MMP act inh – blocks activation of human MT1-MMP; P50281; HT1080 RFP-PRO-GFP cells, GFP/RFP ratio fluorescence, overnight; percent of plate control window, DMSO zero; GFP/RFP ratio change, % at 20 µM; 0.061% of 360,000 active;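 active = GFP/RFP ratio change of at least 30% with cell ATP level not reduced by more than half and red fluorescence within 50% of control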; note: strong numbers were not always called active
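Read-out: GFP/RFP fluorescence ratio; Test system: RFP-PRO-GFP reporter HT1080 cells; Compound dosing: single-point 20 µM compound, 1% DMSO; Times: overnight compound exposure at 37 °C.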
MT1-MMP act inh RFP – further read-out of MT1-MMP act inh, marked with its call; RFP signal change, %; measured here: RFP expression control read;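 0 = vehicle wells; hits needed this value within 50% of zero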
An asterisk follows results filed as active; u = inconclusive. The list is partial, so the mix of outcomes need not match the whole.

SMILES	Env fusion inh	MT1-MMP act inh	MT1-MMP act inh RFP
CCOC(CN=c1nc(N(C)C)ss1)OCC	3	1	1
CC(C)NC(=O)C1(C)CSCC(=O)N1CCOc1ccccc1 (stereo unspecified)	20	4	1
O=C(COC(=O)c1cc([N+](=O)[O-])ccc1Cl)NCCc1ccccc1	-4	-2	-1
CS(=O)(=O)N1Cc2cc(C(=O)NCC3CC3)nc(-c3cccc(-c4cccnc4)c3)c2[C@H]1CCO	-5	1	1
Cc1ccc(-c2nc3c4ccccc4ccn3c2CC2CCCCC2)cc1	7	-3	2
CCCCC1CC(=O)NC1(C(=O)OCC)C(=O)OCC (stereo unspecified)	1	1	4
Cc1cccc(NC(=O)CCc2ccc(N3C(N)=NC(N)=NC3(C)C)cc2)c1	13	-15	-15
O=C1CC2C(CCC23OCCO3)c2ccc3ccccc3c21 (stereo unspecified)	-56	-4	-3
Cc1cccc(CN2CCN(C3CN(Cc4cn(Cc5ccc(Cl)cc5)nn4)S(=O)(=O)C3)CC2)c1 (stereo unspecified)	32	2	-10
Nc1[nH]c(C(=O)c2ccccc2)c(-c2ccc(Br)cc2)c1C(=O)NC1CC1	-34	8	2
O=C(NCc1ccccc1)C(c1ccccc1)n1c(-c2ccncc2)nc2ccccc21 (stereo unspecified)	31	-2	-2
Brc1ccc2ncc3ccccc3c2c1	-18	-12	-8
COc1ccc(CCNC(=O)c2cc([C@@H](NC(=O)OC(C)(C)C)C(C)C)sc2N)cc1OC	24	-8	-8
COC(=O)c1ccc(N2C(c3cc(OC)cc(OC)c3)=Cc3ccc(-c4cnc(OC)nc4)cc3C2CC(=O)C2CC2)cc1 (stereo unspecified)	-54	-6	-7
COCc1cn(CC(=O)c2sc(NC(=O)C(C)(C)C)nc2C)nn1	-3	3	2
CCOc1cc2c(cc1O)C(=NO)CC1C2CCC2(C)C(O)CCC12 (stereo unspecified)	1	18	-3
CCOC(=O)c1cc2cc(OC)ccc2n1C1CCN(C)CC1	-18	-2	0
Cc1cccc(C(=O)N2CCC(=O)N([C@H](COCc3ccccc3)Cc3ccccc3)CC2)c1	-22	2	-3
Cc1cc(C)n2c(NC3CCCC3)c(-c3ccc(F)cc3)nc2n1	-1	0	1
O=C1c2ccccc2-c2c1c1ccccc1c(=O)n2CCO	-66	-1	4

Individual results from the results shown:
Nc1[nH]c(C(=O)c2ccccc2)c(-c2ccc(Br)cc2)c1C(=O)NC1CC1 in MT1-MMP act inh reads 8
Cc1ccc(-c2nc3c4ccccc4ccn3c2CC2CCCCC2)cc1 in MT1-MMP act inh reads -3

Five of the compounds above, with values under each structure:
Sequence of screens – Env fusion inh, MT1-MMP act inh, MT1-MMP act inh RFP
> CCOc1cc2c(cc1O)C(=NO)CC1C2CCC2(C)C(O)CCC12 (stereo unspecified)
  1, 18, -3
> CCOC(=O)c1cc2cc(OC)ccc2n1C1CCN(C)CC1
  -18, -2, 0
> Cc1cccc(C(=O)N2CCC(=O)N([C@H](COCc3ccccc3)Cc3ccccc3)CC2)c1
  -22, 2, -3
> Cc1cc(C)n2c(NC3CCCC3)c(-c3ccc(F)cc3)nc2n1
  -1, 0, 1
> O=C1c2ccccc2-c2c1c1ccccc1c(=O)n2CCO
  -66, -1, 4

Following part
SMILES	Env fusion inh	MT1-MMP act inh	MT1-MMP act inh RFP
COC(=O)c1ccc2nc(-c3ccc(Cl)cc3)c(Cc3ccc(OC)cc3C)n2c1	-19	1	-3
C[C@@H](C(=O)N=c1sc2ccccc2n1C)N1C(=O)C2CC=CCC2C1=O (stereo partly specified)	-4	1	4
CCCCNC(=O)C[C@@H]1C[C@@]2(C(=O)OCC)CCC=C2N(Cc2ccc(Cl)cc2Cl)C1=O	-30	-5	-9
COCCNC(=S)N(C)[C@H]1C[C@H]2c3cc(-c4ccccc4)ccc3CCN2C(=O)[C@H]1[C@H](C)O	-36	8	6
COc1ccc(CN2C(=O)c3ccccc3C2c2nnnn2C(C)C)cc1OC (stereo unspecified)	-10	14	6
CCOC(=O)[C@]12CCCC=C1N(CCC1=CCCCC1)C(=O)[C@H](CC(=O)NCc1cccc3ccccc13)C2	48	-5	-18
O=C(NCCCN1C(=O)c2ccccc2C1=O)OCc1ccccc1	-1	0	1
COc1ccc(C2=C(c3ccccc3)OC(OC)c3cc(F)ccc32)cn1 (stereo unspecified)	-6	4	-7
CN1CCN(c2cccc3c2S(=O)(=O)N[C@@H](Cc2ccccc2)CO3)CC1	u	3	3
COc1ccc(C(CNC(=O)COc2ccc(F)cc2Cl)N2CCOCC2)cc1 (stereo unspecified)	15	-3	-2
COc1ccc2c(c1)C(CC(C)=O)N(c1ccc(-c3cnc(OC)nc3)cc1)C(c1ccsc1)=C2 (stereo unspecified)	-96	-1	-1
CC(=O)C[C@@H]1OC[C@H](Cc2ccccc2)N1S(=O)(=O)c1ccc(C)cc1	9	15	3
CCOC(=O)[C@]12CCC=C1N(Cc1ccc3c(c1)OCO3)C(=O)[C@H](CC(=O)NCCC(C)C)C2	8	0	-6
Cc1cccc(C)c1NC(=O)C(c1ccccc1)n1c(-c2ccccc2)nc2ccccc21 (stereo unspecified)	-404	-1	-11
C=CCOC(=O)Nc1nc(CCNC(=O)OCc2ccccc2)c(C(=O)OC)s1	-1	-1	0
CN1OC[C@@H]2CN(C(=O)c3ccco3)[C@H](c3ccc(-c4ccc(C#N)cc4)cc3)C[C@@H]21	10	-2	2
COc1ccc(-c2cc3c(o2)CCCC3OCCN2CCOCC2)cc1 (stereo unspecified)	-22	10	5
Cc1cnc(-c2nc3ccccc3n2C(C(=O)NC(C)(C)C)c2cc3ccccc3o2)cn1 (stereo unspecified)	-12	3	-3
O=c1oc(=S)oc2c1[C@H](c1ccc(Cl)cc1)O[C@H](C1CC1)C2	1	2	2
O=C(Nc1c(-c2ccccc2)[nH][nH]c1=O)c1ccc(-c2ccccc2)cc1	-44	0	5

Just Env fusion inh, for 6 of the compounds above:
Compound	Env fusion inh
COCCNC(=S)N(C)[C@H]1C[C@H]2c3cc(-c4ccccc4)ccc3CCN2C(=O)[C@H]1[C@H](C)O	-36
COc1ccc(CN2C(=O)c3ccccc3C2c2nnnn2C(C)C)cc1OC (stereo unspecified)	-10
CCOC(=O)[C@]12CCCC=C1N(CCC1=CCCCC1)C(=O)[C@H](CC(=O)NCc1cccc3ccccc13)C2	48
O=C(NCCCN1C(=O)c2ccccc2C1=O)OCc1ccccc1	-1
COc1ccc(C2=C(c3ccccc3)OC(OC)c3cc(F)ccc32)cn1 (stereo unspecified)	-6
CN1CCN(c2cccc3c2S(=O)(=O)N[C@@H](Cc2ccccc2)CO3)CC1	u

Remaining list, next part.
SMILES	Env fusion inh	MT1-MMP act inh	MT1-MMP act inh RFP
CC(C)(C)C1CCN2CCC[C@](c3ccccc3)(C1)C2OCCCO (stereo partly specified)	-23	5	0
COCCNC(=O)C1C(=O)Nc2ccccc2C(=O)N1Cc1ccccc1 (stereo unspecified)	-13	-7	1
O=C1CCCCc2cc(O)c(O)cc21	-1	9	4
CCOC(=O)C(C#N)C(=N)C1C(=O)OC2CCCCC21 (stereo unspecified)	10	7	2
COC(=O)[C@]12CCCCC=C1N(Cc1cccc3ccccc13)C(=O)[C@H](CC(=O)NCC1CCCCC1)C2	11	-13	-15
COc1ccc(C2=Nc3ccccc3N(C(=O)c3ccc4c(c3)OCO4)C2C(=O)Nc2c(C)cccc2C)cc1 (stereo unspecified)	-23	-5	-1
Cc1c(Cl)cc(C(C)C)c(O)c1CN1CCOCC1	14	-2	1
Cc1cc(C)n2c(Nc3ccc4c(c3)OCCO4)c(-c3ccccn3)nc2n1	-16	9	11
OCC1OC(n2cnc3c(SCc4ccccc4)ncnc32)C(O)C1O (stereo unspecified)	-47	-1	4
O=C(NCc1ccccn1)[C@@H]1CCCN1C(=O)[C@@H]1CCCN1C(=O)c1cccc(Cl)c1	-12	6	6
CC1(C(=O)NS(=O)(=O)c2ccccc2Cl)CCN1C(=O)CC1CC1 (stereo unspecified)	-4	2	6
O=C(NCc1ccc(F)cc1F)[C@@H]1CCCN1C(=O)[C@@H]1CCCN1C(=O)c1ccc(Cl)cc1	0	3	1
COc1ccc(Nc2c(C3CC3)nc3nc(C)cc(C)n23)cc1	5	0	4
CC(=O)Nc1ccc2c(c1Br)Cc1ccccc1-2	-37	3	2
COC(=O)C1=CN(c2ccc(C(C)(C)C)cc2)C(N)=C(C#N)C1c1ccccc1F (stereo unspecified)	6	2	-5
Cc1ccc(C)c(OCCC(=O)Nc2ccccc2C(=O)NC2CC2)c1	5	6	1
Cc1cc(C)n2c(Nc3ccc4c(c3)OCCO4)c(-c3ccc(F)cc3)nc2n1	-98	5	8
CCCCCNC(=O)C(c1ccc(OC)cc1)n1c(=O)c(-c2ccco2)nc2ccccc21 (stereo unspecified)	8	-19	-22
CCCCCCCCN1C(=O)[C@H](CC(=O)NCc2ccc(C)o2)C[C@@]2(C(=O)OC)CC(C)(C)CC=C12	7	-6	-8
O=c1c(-c2ccccc2)nc2ccccc2n1C(c1ccccc1)c1nc2ccccc2[nH]1 (stereo unspecified)	25	-6	-10
CC1(c2nnnn2-c2ccc3c(c2)OCCO3)CCC(=O)N1C1CC1 (stereo unspecified)	-16	4	4
CCCCN1C(=O)C(=O)NC[C@H]1Cc1cccc2ccccc12	8	9	9
C=C1CC(COc2ccc3c(C)c(Cl)c(=O)oc3c2)(c2ccccc2)OC1=O (stereo unspecified)	-51	5	-30
CC(=O)Nc1ccc(C(=O)CSc2nnc(-c3ccccc3F)n2CCc2ccccc2)cc1	15	-1	0
CCC(C)CN1C(=O)CSCC1(C)C(=O)NC(C)C (stereo unspecified)	14	5	2
CCOC(=O)N1CCN(C(C(=O)NC2CCCC2)C(C)C)CC1 (stereo unspecified)	-25	3	5
COc1ccc(OC)c(NC(=O)C2(C)CCN2Cc2ccc(OC)c3ccccc23)c1 (stereo unspecified)	12	2	-1
COc1cccc(C(C(=O)NCc2ccccc2)N2CCN(CCN3CCOCC3)CC2)c1OC (stereo unspecified)	8	6	6
COCCn1c(C(=O)N(C)C)cc2c1C[C@H]1CN(C(=O)c3ccccc3)[C@@](Cc3ccc(F)cc3)(C(=O)OC)[C@@H]21	-3	-3	-4
Cc1ccc(S(=O)(=O)Nc2ccccc2OC(C(=O)OC(C)(C)C)C(=O)OC(C)(C)C)cc1	30	-9	-16
CN(N=Nc1nc[nH]c1C(=O)NN)C1CCCCC1	26	0	-1
O=S1(=O)CC(N2CCN(CCO)CC2)CN1Cc1cn(Cc2ccccc2)nn1 (stereo unspecified)	9	4	5
Cc1ccc(C)c(NC(=O)COC(=O)CC2CC3CCC2C3)c1 (stereo unspecified)	u	1	2
Cc1cccc(C)c1NC(=O)CNC(=O)c1ccc2c(c1)NC(=O)CS2	6	-2	1
O=C1NC[C@H](CCCCN2C[C@H](Cc3ccccc3)N(Cc3ccccc3)C(=O)C2=O)N(CCc2ccc(O)cc2)C1=O	-16	1	6
O=C(NCc1ccccc1)C1c2ccccc2OCC(=O)N1Cc1ccc2c(c1)OCO2 (stereo unspecified)	1	5	3
CN(CCc1ccccc1)C(c1cc2ccccc2o1)c1nnnn1C(C)(C)C (stereo unspecified)	23	-9	-13
O=C1NC[C@H](CCCCN2C[C@H](Cc3ccccc3)N(CCC3CCCCC3)C(=O)C2=O)N(Cc2ccccc2)C1=O	-12	4	-3
Cc1nn(CC(=O)NC(C)C(C)C)c(C)c1S(=O)(=O)N1CCCCC1 (stereo unspecified)	-18	-2	1
CCCCc1c(Cc2cccc(F)c2)ncn1CCc1ccccc1OC	33	-3	-13
CCOC(=O)[C@]12CCCC=C1N(CCC1=CCCCC1)C(=O)[C@H](CC(=O)NCCCCc1ccccc1)C2	30	-8	-15
CCOC(=O)N1C(=O)NC(=O)C1c1ccc(OC)cc1 (stereo unspecified)	29	0	2
CN(C)CCN1CCN(C2CN(Cc3cn(Cc4ccc(C(F)(F)F)cc4)nn3)S(=O)(=O)C2)CC1 (stereo unspecified)	-29	3	7
COc1ccc(CN2C(=O)C(CC(=O)NCc3cccc4ccccc34)CC(C(=O)N3CCOCC3)=C2C)cc1 (stereo unspecified)	34	7	1
CC(C)c1ccc(C2OCCCO2)cc1	-50	-9	-4
CCOC(=O)[C@]12CCC=C1N(Cc1cccc3ccccc13)C(=O)[C@H](CC(=O)NCc1ccc(OC)c(OC)c1)C2	48	12	-31
N#CC(=C(O)CN1CCN(c2ccccc2F)CC1)c1nc(-c2ccccc2)cs1	0	11	-6
CCCCn1nnnc1C(c1cc2ccccc2o1)N1CCN(C(=O)OCC)CC1 (stereo unspecified)	3	2	2
O=c1[nH]c(=O)n(C2CC(O)C(CO)O2)cc1Br (stereo unspecified)	-10	5	7
COC(=O)[C@@]1(Cc2ccc(F)cc2)[C@H]2C(CC(=O)C(=O)N3CCCC3)C(=O)C[C@H]2CN1C(=O)c1ccccc1 (stereo partly specified)	20	-4	4
COC(=O)c1ccccc1OCc1cc(=O)oc2ccc(C)cc12	11	2	4
CNC(=O)C[C@H]1C(=O)N(C2CCCCC2)C[C@@H]1c1ccc(Br)cc1	12	3	4
CC(C)CC(=O)[C@@H](O)Cc1ccc(O)cc1	-12	7	4
CCN(CC)S(=O)(=O)c1ccc(C(O)=C(C#N)c2nc3ccccc3n2C)cc1	2	6	-2
O=C1NCCN1c1ccccc1	-8	-3	1
Nc1nc2c(Br)ccc(Br)c2cc1C(=O)NCCc1ccccc1	-25	1	2
N#C/C(=C/C1=C(N2CCOCC2)C(=C/c2cccc([N+](=O)[O-])c2)/CC1)C(=O)Nc1ccccc1F	13	-11	50
